NPYLR7 ag – agonists of mosquito NPYLR7 receptor, primary screen, cell-based, Aedes aegypti, calcium fluorescence, mosquito biting behavior. HEK293T NPYLR7/Galpha15, GCaMP6s calcium fluorescence. hit rate 0.15% among 270,000. activation, % at 10 µM. Aedes aegypti neuropeptide Y-like receptor 7 (NPYLR7); in the data active = activation above about 40%;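 also: 0% = vehicle and 100% = reference agonist at the receptor; some compounds past the cut are filed as inactive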
NPYLR7 ag max-min – further read-out of NPYLR7 ag, marked with its call; activation, %; measured here: Max-Min RFU normalised activation; some inactives read as strong as hits;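 span of the calcium signal over five minutes; 0% = vehicle and 100% = native peptide agonist; compound fluorescence can raise it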
Active calls of the source: *; & = joins results of further samples.

Every second line gives: NPYLR7 ag | NPYLR7 ag max-min
1: CC(NC(N)=O)C(=O)N(C)C1c2ccccc2-c2ccccc21 (stereo not drawn)
    -2 | -3
2: Cc1cc(C2CCCN2c2cc(Cl)nc(N)n2)no1 (stereo not drawn)
    4 | 4
3: CC(N=Cc1c(O)n(Cc2ccccc2)c(=S)[nH]c1=O)c1ccccc1 (stereo not drawn)
    1 | 15
4: COc1ccc(/C=C/C(=O)Nc2ccccc2Cl)cc1S(=O)(=O)N1CCCCC1
    -4 | -5
5: O=C(CSc1nc(=O)n(CC2CCCO2)c2c1CCC2)Nc1ccccc1[N+](=O)[O-] (stereo not drawn)
    -6 | -11
6: COC(=O)c1ccc(Cn2nc(C3CC3)c3cnn(-c4cccc(Cl)c4)c3c2=O)o1
    9 | 5
7: CCN1C(=O)NC(c2ccc(C(=O)OC)cc2)C(C(=O)OC)=C1C (stereo not drawn)
    0 | 0
8: Cn1nc(C2CC2)c2cnn(-c3ccc(F)cc3)c2c1=O
    6 | 3
9: CC(C)Cc1nc(N2CCN(C(=O)NC3CCCCC3)CC2)c2c(-c3cccc(Oc4ccccc4)c3)noc2n1
    18 | 5
10: CC(C)c1nccc(CN2CCN(S(=O)(=O)c3ccccc3)CC2)n1
    1 | -7
11: Cc1csc(CN(C2CC2)C(C)c2ccccc2Cl)n1 (stereo not drawn)
    7 | 7
12: CC(=O)Nc1ccc(-c2nccn2CCCN(C)C)cc1
    -2 | -7
13: CN(C)Cc1ccc(Sc2ccccc2Cl)cc1
    -2 | -3
14: CCc1ccc(CN2CCCN(C(=O)COC)CC2)nc1
    1 | 0
15: CCOC(=O)C1=C(C)NC2=C(C(=O)CCC2)C1c1ccc(OC)c(O)c1 (stereo not drawn)
    3 | 1
16: Cc1nc2c(c(=O)n1C)CCN(C(=O)c1ccccc1-c1nccn1C)CC2
    2 | -1
17: O=S(=O)(Nc1ccc(Cl)cc1F)c1cnc[nH]1
    21 | 16
18: O=C(CC(c1ccccc1)(c1ccccc1)c1ccccc1)NC(c1ccc(F)cc1)c1ccc(SCc2ccccc2)cc1 (stereo not drawn)
    -6 | -12
19: CC(=O)N=c1sc(S(N)(=O)=O)nn1C
    -10&-4&-3 | -16&-10&-7
20: Cc1ccc(C(C)C)cc1S(=O)(=O)N1CCC(C(N)=O)CC1
    -15 | -18
21: O=C(c1ccccc1Cl)N1CCSC1c1ccccc1C(F)(F)F (stereo not drawn)
    -4 | -1
22: Cc1ccc(NC(=O)c2ccc(CSc3nc(Cl)cc(N(CCc4ccccc4)Cc4ccccc4)n3)cc2)cc1
    -2 | 4
23: COCCn1cc(C(=O)Nc2cccc(C)n2)c2nn(-c3ccccc3)c(=O)c-2c1
    2 | 3
24: CCOCCOc1nc(-c2cccc(OC)c2)n(-c2ccc(NC(=O)COC)cc2)n1
    5 | 11
25: Cc1nn(C)c(C)c1CCC(=O)NCc1ccccc1-n1ccnc1C
    -3 | -7
26: O=C(O)CONC1=NS(=O)(=O)c2ccccc21
    1 | 0
27: CCOC(=O)c1cnn(-c2ccccc2C)c1N
    -3 | -4
28: Cc1ccsc1CCNc1nc(-c2cccnc2)nc2c1CNC2
    3 | 1
29: COc1cc(Cl)c([C@@H]2C[C@H]3CN(c4ccccc4)C(=O)[C@]34CCCN24)cc1OC
    4 | -1
30: CCC(c1ccccn1)N(C)C1CCNCC1 (stereo not drawn)
    6 | 1
31: CC(C)CCn1c(SCCO)nc2c1c(=O)[nH]c(=O)n2C
    4 | 0
32: CN1CC2(CCN(C(=O)c3ccc4c(c3)CCO4)CC2)CC1C(=O)O (stereo not drawn)
    3 | 6
33: CCN(CC)C(=O)c1ccccc1NS(=O)(=O)C(F)(F)F
    0 | -7
34: O=C(COc1c(F)c(F)cc(F)c1F)c1ccc[nH]1
    -1 | 1
35: Clc1cc(N=Cc2ccccn2)c(Cl)cc1N=Cc1ccccn1
    -7 | -8
36: CCNC(=O)NC(=O)CSc1nnc(-c2cccs2)n1-c1ccccc1
    -4 | -8
37: COCCCCS(=O)(=O)c1ccc(C)c(C)c1
    -1 | -7
38: Cc1cnc(NC(=O)CCNS(=O)(=O)c2ccc(C)c(C)c2)s1
    0 | 0
39: COCc1nc2ccccc2[nH]1
    2 | 5
40: O=C(/C=C/c1cc(C(F)(F)F)ccc1Cl)NCc1ccon1
    5 | 3
41: CN1CCC(N(C)C(=O)CCC2CCCN(Cc3cnn(-c4ccc(F)cc4)c3)C2)CC1 (stereo not drawn)
    -14 | -19
42: CC(C)N(Cc1cccc(OS(=O)(=O)c2cccc(C(F)(F)F)c2)c1)C(=O)Nc1cccc(F)c1
    -9 | -1
43: O=C1O[C@@H]2[C@@H]3NC(=S)N(c4ccccc4)[C@@H]3[C@H]1C[C@H]2O
    -11 | -18
44: C=CCCCCCCCCCCCC(O)CC(O)COC(C)=O (stereo not drawn)
    -24&-11 | -19&-18
45: Cc1ccc(C2c3ccccc3CCN2C(=O)Nc2cccc(F)c2)cc1 (stereo not drawn)
    25 | 17
46: CC1CCN(Cc2nc(-n3ccnc3)c3c4c(sc3n2)CCC4)CC1
    -2 | 5
47: COc1ccc(CN(C)C(=O)Nc2ccc(C)cc2)c(OC)c1
    0 | -3
48: O=C(CSc1ccc(-c2ccncc2)nn1)N1CCCCCC1
    4 | -8
49: C=CCn1c(=O)c2c(nc3n(-c4ccc(C(F)(F)F)cc4)c(C)c(C)n23)n(C)c1=O
    -2 | 1
50: Cc1cc(O)c(C(c2cccnc2)c2c(O)cc(C)oc2=O)c(=O)o1
    2 | 0

Later entries:
Every second line gives: NPYLR7 ag | NPYLR7 ag max-min
51: O=C(CSc1nc2ccccc2[nH]1)N/N=C\c1c(F)cccc1Cl
    10 | 11
52: CN(Cc1nccn1C)c1nccc(CCC(F)(F)F)n1
    5 | 4
53: CN(C)CCCN(C(=O)c1nc2ccccc2s1)c1nc2c(F)cccc2s1
    5 | 5
54: CC(C)(C)c1cc(C(=O)Nc2ccc(-c3onc4c3CCCC4)cc2)n(Cc2ccccc2)n1
    24 | 24
55: CC1CCCC(C)N1C(=O)/C=C/c1ccc(S(=O)(=O)N2CCOCC2)cc1 (stereo not drawn)
    3 | 3
56: CCCCS(=O)(=O)N1CCC2(CC1)C(=O)N(CC(=O)NCCc1ccccc1OC)CN2c1ccccc1
    -5 | -1
57: CCNC(=O)C(C)Sc1nc(-c2ccco2)nc2ccccc12 (stereo not drawn)
    -16 | -13
58: Cc1[nH]c2ccc(F)cc2c1CC(=O)N=c1sccn1C
    3 | 0
59: CCOc1cccc2cc(-c3nnc(-c4ccccc4)o3)c(=O)oc12
    -5 | -12
60: O=C1NCC(=O)N2CCN(C(=O)c3ccc4scnc4c3)CC12 (stereo not drawn)
    9 | 6
61: CCNC(=O)N[C@@H]1[C@@H](O)C[C@@H]2C[C@H](c3ccccn3)OC[C@@]21O
    10 | 25
62: O=C(NCc1cccnc1)C(C1CCCC1)N1CCN(C(=O)C2CC2)CC1 (stereo not drawn)
    12 | 15
63: CCCCN(CC(=O)N1c2ccccc2-n2cccc2C1c1cccc(C)c1)C(=O)c1ccc(OC)cc1OC (stereo not drawn)
    4 | 4
64: Nc1nnc(SCC(=O)N(C2CCCCC2)C2CCS(=O)(=O)C2)s1 (stereo not drawn)
    14 | 15
65: COc1ccc(N2CCN(C(=O)C3CC=CCC3C(=O)Nc3ccc(OC)nc3)CC2)cc1 (stereo not drawn)
    -3 | -11
66: Cn1c(=O)[nH]c(=O)c2c1nc(N1CCN(Cc3cccc(Cl)c3)CC1)n2Cc1ccccc1Cl
    18 | 13
67: CC(C(=O)NCc1ccccc1Cl)N(C)Cc1cn[nH]c1 (stereo not drawn)
    3 | 13
68: Cc1c(C#N)c(N)n(CCN2CCNCC2)c1C
    7 | 2
69: COc1ccc(NS(=O)(=O)c2ccc(NS(=O)(=O)c3ccc(OC)c(C)c3)cc2)cc1
    -7 | -12
70: FC(F)(F)c1cc(Sc2ncc[nH]2)n2ncnc2n1
    2 | 7
71: COc1cc(Cl)c(C(=O)N2CCOC(COCc3ccccc3F)C2)cc1OC (stereo not drawn)
    -3 | -5
72: Cc1nc2n(n1)CC(NCc1ccc(N3CCOCC3)c(F)c1)CC2 (stereo not drawn)
    12 | 5
73: COCCCNC(=O)Cn1c(=O)n(CC(=O)NCCc2ccccc2)c(=O)c2sccc21
    3 | 4
74: CCCN(Cc1ccc(SC)cc1)Cc1cc(C)nn1C
    1 | 16
75: CCOC(=O)c1c(NC(=O)c2sc3cccc(Cl)c3c2Cl)sc2c1CCCC2
    2 | -3
76: CN(C)c1ncccc1CNS(=O)(=O)N1CCOCC1
    7 | 4
77: Cc1nn(CCC#N)c2nc(C(F)(F)F)[nH]c(=O)c12
    1 | -2
78: Cc1ccc(SCCNC(=O)c2cc(F)ccc2Br)cc1
    -2 | -3
79: CCOC(=O)c1c(C)[nH]c(C(=O)OCC(=O)c2cc(C)n(CCOC)c2C)c1C
    4 | 7
80: Cc1cc(C(O)(C(F)(F)F)C(F)(F)F)c(C)n1-c1ccc(N(C)C)cc1
    4&2 | 1&0
81: CCn1c(CCNC(=O)C(C)(C)C)nc2ccccc21
    8 | 13
82: Cc1nn(-c2ccccc2)c(N)c1N=Nc1ccc2ccccc2c1
    -11 | -15
83: CC(C)N(Cc1cccc(OS(=O)(=O)c2cccc(C(F)(F)F)c2)c1)C(=O)c1ccc(Cl)cc1Cl
    3 | 13
84: CCC(CC)c1nnc(NC(=O)c2cc(C)cc(C)c2)s1
    -2 | -8
85: O=C(C1CCCN(c2nc(Cc3ccc(Cl)cc3)ns2)C1)N1CCN(C(c2ccccc2)c2ccccc2)CC1 (stereo not drawn)
    24 | 32
86: C(=NCc1ccccc1)c1ccc(OC2CSC2)cc1
    0 | 2
87: COc1ccc(C(NC(=O)C2CCN(CCOc3ccc(F)cc3)CC2)c2ccccn2)cc1 (stereo not drawn)
    10 | 0
88: CCCc1nc(CN(CC)C(=O)c2cccc3ccnn23)no1
    5 | 4
89: CCn1nccc1C(=O)N(CC1CCCO1)c1nc2c(OC)ccc(C)c2s1 (stereo not drawn)
    1 | 2
90: CCOc1ccc(C2NC(=O)NC3=C2C(=O)N(Cc2ccc(OC)cc2)C3)cc1 (stereo not drawn)
    9 | 10
91: Cc1ccccc1C(=O)Nc1cc(C(C)(C)C)nn1-c1cc(Cl)ccc1Cl
    18 | 5
92: Cc1ccc(Cl)c(Oc2cc(N3CCN(c4ccccc4F)CC3)ncn2)c1
    14 | 12
93: COc1cc(Nc2ccc(NC(=O)Nc3ccc(C)cc3)cc2)nc(C)n1
    9 | 9
94: CCCc1nn(-c2ccc(F)cc2)c(C)c1C(=O)O
    3 | 10
95: COc1ccc2c(c1)CN(S(=O)(=O)c1ccc(C)cc1)C=CC2=O
    5 | 7
96: COC(=O)CC1(NCC(=O)N(C)C2(C#N)CCCCC2)CCCCC1
    1 | -3
97: CCCCCCCCCCCCCC(=O)Nc1ccc(N2CCC(Cc3ccccc3)CC2)c(C(=O)NC2CC2)c1
    -2 | 2
98: CCOC(=O)Nc1nnc(Cc2ccc(OC)c(OC)c2)s1
    3 | 0

In the list so far, these contain an aryl thioether with sulfur outside any ring.
Every second line gives: NPYLR7 ag | NPYLR7 ag max-min
5: O=C(CSc1nc(=O)n(CC2CCCO2)c2c1CCC2)Nc1ccccc1[N+](=O)[O-] (stereo not drawn)
    -6 | -11
13: CN(C)Cc1ccc(Sc2ccccc2Cl)cc1
    -2 | -3
18: O=C(CC(c1ccccc1)(c1ccccc1)c1ccccc1)NC(c1ccc(F)cc1)c1ccc(SCc2ccccc2)cc1 (stereo not drawn)
    -6 | -12
22: Cc1ccc(NC(=O)c2ccc(CSc3nc(Cl)cc(N(CCc4ccccc4)Cc4ccccc4)n3)cc2)cc1
    -2 | 4
31: CC(C)CCn1c(SCCO)nc2c1c(=O)[nH]c(=O)n2C
    4 | 0
36: CCNC(=O)NC(=O)CSc1nnc(-c2cccs2)n1-c1ccccc1
    -4 | -8
48: O=C(CSc1ccc(-c2ccncc2)nn1)N1CCCCCC1
    4 | -8
51: O=C(CSc1nc2ccccc2[nH]1)N/N=C\c1c(F)cccc1Cl
    10 | 11
57: CCNC(=O)C(C)Sc1nc(-c2ccco2)nc2ccccc12 (stereo not drawn)
    -16 | -13
64: Nc1nnc(SCC(=O)N(C2CCCCC2)C2CCS(=O)(=O)C2)s1 (stereo not drawn)
    14 | 15
70: FC(F)(F)c1cc(Sc2ncc[nH]2)n2ncnc2n1
    2 | 7
74: CCCN(Cc1ccc(SC)cc1)Cc1cc(C)nn1C
    1 | 16
78: Cc1ccc(SCCNC(=O)c2cc(F)ccc2Br)cc1
    -2 | -3

The list is partial. The share of hits here may be higher or lower than overall.
